AID504770 = growth inhibitors of E. coli YBA685 in a screen for V. cholerae RctB (chromosome II replication) inhibitors; E. coli YBA685 rctB-dependent plasmid, OD600 growth, 3 h; stronger effect = lower value; z-score (test concentration not listed); 0.27% of 130,000 active;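 active means z-score under -2 on both plates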;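 further: wells of about 30 µL received 100 nL stock; score is relative to mean and SD of the test wells; the first replicate is given; strong numbers were not always called active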
CapD inh = inhibitors of Bacillus anthracis CapD enzyme; purified CapD enzyme, fluorescence intensity read-out; stronger effect = lower value; some hits fall short of the stated cut; z-score (concentration not given with the values); 0.23% of 140,000 active;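 active means z-score under -4 in either of two replicates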;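 further: stock transfer was 100 nL into about 40 µL; score is relative to mean and spread of the plate; one replicate is shown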
The depositor's hits bear a star; nt = no result given.

SMILES	AID504770	CapD inh
CC(=O)Nc1ccc(N2C(=O)CC(NCc3ccc(F)cc3)C2=O)cc1 (stereo not drawn)	nt	0.29
COc1ccc(C2NCCc3c2[nH]c2ccccc32)cc1 (stereo not drawn)	nt	-0.29
O=C(CCC(=O)Nc1nc(-c2cc3ccccc3oc2=O)cs1)NCc1ccccc1Cl	nt	0.805
CCc1ccc(N2CC(O)(c3ccc(OC)c(OC)c3)[N+]3=C2SCCC3)cc1 (stereo not drawn)	nt	0
O=C(COc1ccccc1)OC1OCCOC1OC(=O)COc1ccccc1 (stereo not drawn)	0	nt
COc1cc(/C=C\C(=O)NCc2ccc3[nH]c4c(c3c2)CCCC4)cc(OC)c1OC	0.05	68.5
CS(=O)(=O)c1ccc(Cn2cc(-c3ccc4ccccc4n3)cn2)cc1	nt	21.4
COC(=O)c1ccccc1S(=O)CC(=O)c1ccc(S(C)(=O)=O)cc1 (stereo not drawn)	nt	-0.975
CNC(=O)CN(C)Cc1c(O)c(C(=O)NCc2ccccc2)cc2ccccc12	0.3	nt
CCNc1nc2nc3ccc(C)cn3c(=O)c2cc1C(=O)NCC1CCCO1 (stereo not drawn)	0.1	nt
COCCNC(=O)c1ccc(C(=O)NCCOC)cc1	0.3	0.13
Cc1cc2nc(/C=C/c3ccccc3)n(Cc3ccc(C(C)(C)C)cc3)c2cc1C	nt	5.48
c1ccc2[nH]c(C3CCNCC3)nc2c1	0.5	0.795
CC(=O)N/N=C/c1ccc(-c2ccc(F)c(Cl)c2)o1	-1.2	1.56
COC(=O)N(c1ccccc1)c1nc(C)cc(C)n1	nt	-0.03
COc1ccc(OC)c(NC(=O)c2cccs2)c1	-0.6	-0.885
Cn1c(-c2ccccc2)cn2nc[n+](C)c12	0.1	0.145
CCOC(=O)C1CCCN(C(=O)c2cn(CC)c3ccc(S(=O)(=O)N(C)C4CCCCC4)cc3c2=O)C1 (stereo not drawn)	-0.8	-0.505
CCCn1c(SCc2cc(OC)c(OC)cc2C)n[nH]c1=O	-0.3	nt
COC(=O)c1sccc1NC(=O)Nc1cc(C)oc1C(F)(F)F	1.4	-0.455
COc1ccc(OCC(=O)NCc2ccc(-c3nc4ncccc4o3)cc2)cc1	0.4	nt
C/C(=N\N=C1\NC(=O)C(CC(=O)Nc2ccc(C)c(Cl)c2)S1)C(C)(C)C (stereo not drawn)	1.25	0.03
CN(C)c1cccc(C(=O)OCC(N)=O)c1	-1.4	-0.46
CCOC(=O)c1ccccc1NC(=O)/C(C#N)=C/c1ccc(-c2ccc(Cl)cc2)o1	0.4	0.82
O=C(O)c1ccccc1SCc1cn2cc(Br)ccc2n1	-1.2	-0.34
O=c1[nH]c(=O)n(Cc2ccccc2)c2nc[nH]c12	-0.4	6.53
CCC(=O)Nc1c(C#N)c(C)c(C)n1Cc1cccs1	0.65	-0.18
COC(=O)c1sc(-c2ccccc2)cc1NC(=O)c1ccccc1	0.1	2.09
COc1ccc(CCCOC(=O)NC(Cc2ccccc2)C(=O)OCc2ccccc2)cc1 (stereo not drawn)	nt	-0.875
CC1(C)Nc2ccccc2-c2c1ssc2=S	nt	-1.36
O=C(OCc1ncc(-c2ccccc2)o1)c1ccc(Cl)nc1	0.15	nt
O=C1CSC(c2ccccc2)C(=O)N1c1ccc(Br)cc1 (stereo not drawn)	nt	0.345
COc1cc(Nc2nc3ccccc3nc2N=CN(C)C)cc(OC)c1OC	-0.3	nt
CCOc1ccc(Nc2nc(-c3cccnc3)nc3ccccc23)cc1	nt	0.495
COC(=O)C1=C(C)N(C)C(=O)NC1c1ccccc1 (stereo not drawn)	1.15	0.52
CC(=O)OC1C[C@@H]2CCC3C4CCC(OC(C)=O)C4(C)CCC3C2(C)C/C1=C\c1ccccc1 (stereo partly drawn)	nt	0.085
COC(=O)CSc1nnc(-c2c[nH]c3ccccc23)n1C	0.05	0.205
CC1(C)OC(=O)C(=Cc2ccc(-c3ccccc3)o2)C(=O)O1	0.9	0.36
COc1ccc(N2C(=O)/C(=C/c3cc4c(cc3Cl)OCO4)NC2=S)cc1	nt	-0.725
Cn1ccnc1SCc1csc(-c2ccccc2)n1	-0.85	-0.585
NC(=O)C1(N2CCCCC2)CCN(C(=O)c2ccc(Cn3c(=S)[nH]c4ccccc4c3=O)cc2)CC1	nt	0.365
Cc1oc(-c2cccc(Cl)c2)nc1CN1C(=O)CCCc2ccccc21	0.1	-0.44
O=C(CSc1nc2ccc(N3C(=O)C4C5C=CC(C5)C4C3=O)cc2s1)NC1CCCCC1 (stereo not drawn)	nt	-0.305
COc1cc(C(=O)Nc2cc(-c3nc4cc(Cl)cc(Cl)c4o3)ccc2C)cc(OC)c1OC	nt	2.21
CN(C)CCCN(C)C(=O)c1ccc2n[nH]nc2c1	nt	0.205
N#Cc1cccc(NC(=O)CSc2ccccc2Cl)c1	1.8	-0.085
Nc1nc(CNS(=O)(=O)c2cccc3nsnc23)nn1S(=O)(=O)c1cccc2nsnc12	0.45	-0.12
O=C(O)c1nn(-c2ccccc2)c2c1CCc1occc1-2	-0.6	0.06
COC(=O)c1sccc1OCc1ncc(C(F)(F)F)cc1Cl	0.3	-0.48
CC(C)(C)c1ccc(C(=O)N2CCC(N(C3CC3)S(=O)(=O)c3cccc(C(F)(F)F)c3)CC2)cc1	nt	-0.55
Cc1ccc2c(c1)sc(=NC(=O)c1cccc(N3C(=O)CCC3=O)c1)n2C	2	17
Cc1ccc(-c2nnc(OCCN3CCOCC3)c3ccccc23)cc1	-0.4	-0.1
COc1ccc(C2CC(c3cccs3)=NN2C(=O)CSc2nc3ccccc3s2)cc1 (stereo not drawn)	-1.1	1.51
O=C(CNc1cc(C(F)(F)F)ccc1N1CCOCC1)N1CCc2ccccc2C1	1.45	-0.68
CC(C)c1ccc(C(=O)C2CN3CCC2CC3)cc1 (stereo not drawn)	-0.6	-0.305
O=C(N/N=C/c1ccco1)c1cccnc1	nt	-1.98
CN(Cc1ccccc1)C(=O)c1cc2nc(-c3ccco3)cc(C(F)(F)F)n2n1	0.3	nt
CC(O)CP(c1ccccc1)c1ccccc1 (stereo not drawn)	-0.4	0.4
CC(C)NS(=O)(=O)c1ccc(NC(=O)CSC(C)(C)C)cc1	-0.6	nt
CCC(=O)N1CC(=O)Nc2ccc(F)cc2C1c1ccccc1 (stereo not drawn)	nt	-0.685
The listing continues:
SMILES	AID504770	CapD inh
CC(=O)N(Cc1cc2cc(C)ccc2[nH]c1=O)C1CCCC1	-0.85	nt
COc1ccc(CC2SC(N)=NC2=O)cc1 (stereo not drawn)	-0.8	0.42
Cc1ccc(OCCCn2cc(/C=C3/C(=O)NC(=O)N(C4CCCCC4)C3=O)c3ccccc32)cc1	-0.45	-2.1
COc1ccc(-c2ccc(/C=C3\C(=O)N(c4ccc(S(N)(=O)=O)cc4)N=C3C)o2)c([N+](=O)[O-])c1	nt	-1.48
CC(C)(C)C(=O)[C@@H]1[C@@H](c2cccnc2)C(C#N)(C#N)[C@H]2C=Cc3ccccc3N12	nt	5.79
O=C(N1CCCCCC1)C12CC3CC(CC(Cl)(C3)C1)C2	0.6	-0.375
O=C(CCc1ccco1)N(Cc1cccs1)c1ccc2c(c1)OCCO2	-0.1	nt
Cc1ccccc1-n1c(N)cc(=O)[nH]c1=S	-3.25	-0.89
CN1CCN(c2ccc(S(C)(=O)=O)cc2NC(=O)c2ccccc2)CC1	nt	-0.265
CCc1nc2ccc(C(=O)NC3CCCC(C)C3C)cc2nc1CC (stereo not drawn)	nt	-0.63
C/C=C/C=N/Nc1nc2ccccc2s1	0.1	nt
CN(C)c1nc(C(N)=O)nc(N(C)C)n1	0.75	-0.87
COc1ccc(S(=O)(=O)CCC(=O)Nc2cc(C)ccc2OC)cc1	-0.25	-0.37
CSc1nc(C)nc(-c2ccccc2)c1C#N	-0.15	-0.045
COc1ccccc1-c1nnc(SCc2cccc(S(=O)(=O)N(C)C)c2)n1N	-0.5	nt
CCc1ccc(NC(=O)/C=C/c2ccc(N3CCC(c4ccccc4OC)CC3)c([N+](=O)[O-])c2)cc1	nt	0.255
N/C(=N\c1nc(=O)c2ccccc2s1)NC(=O)Nc1ccc(F)cc1	0.75	-0.025
FC(F)(F)c1cnc(CN2CCSCC2)c(Cl)c1	0.1	0.695
NNC(=O)Cn1nnc(N2CCOCC2)n1	-0.9	1.06
Cc1cc(C)[n+]2c(C)csc2n1	nt	28.9
COC(=O)CC(C1=C(O)CCCC1=O)C1=C(O)CCCC1=O	-0.15	nt
CC(C)(C)c1ccc(O)c(C(C)(C)C)c1O	-0.75	-0.66
O=S1(=O)NC(c2cccc(Br)c2)Nc2ccccc21 (stereo not drawn)	0.05	0.38
CCOC(=O)C1=CN(Cc2ccc(F)cc2)C=C(C(=O)OCC)C1c1cc(Br)ccc1OC	nt	6.53

Filtered by structure, those above containing a nitro group on carbon.
SMILES	AID504770	CapD inh
COc1ccc(-c2ccc(/C=C3\C(=O)N(c4ccc(S(N)(=O)=O)cc4)N=C3C)o2)c([N+](=O)[O-])c1	nt	-1.48
CCc1ccc(NC(=O)/C=C/c2ccc(N3CCC(c4ccccc4OC)CC3)c([N+](=O)[O-])c2)cc1	nt	0.255

(continued)
SMILES	AID504770	CapD inh
O=C(CC1Sc2ccccc2NC1=O)NNC(=O)OCc1cc2c(cc1[N+](=O)[O-])OCO2 (stereo not drawn)	nt	-0.825
CCn1c(C(=O)N2CCC(C(=O)NC3CCC(C)CC3)CC2)cc2sccc21 (stereo not drawn)	-1.15	0.445
COc1ccc(CNS(=O)(=O)c2ccc3c(c2)CN(C(=O)C(F)(F)F)CC3)c(OC)c1	nt	-0.62
CCN1CCCC1CNc1cc(C)c2ccc(C)cc2n1 (stereo not drawn)	-1.2	nt
Cn1c(=O)[nH]c(=O)c2c1nc(Sc1ccccc1)n2Cc1ccccc1	-0.2	-0.945
COc1ccc(C(=O)N2N=C(c3c(-c4ccccc4)c4cc(Br)ccc4[nH]c3=O)CC2c2ccco2)cc1 (stereo not drawn)	nt	0.475
CCN(C(=O)c1cc2ccccc2oc1=O)c1ccccc1	-0.2	-0.7
COc1cc(CNCCO)c(Br)cc1OCC(N)=O	0.15	0.02
OC(CN1CCN(c2ccc(Cl)cc2)CC1)Cn1c2ccccc2c2ccccc21 (stereo not drawn)	nt	1.82
O=C(COc1ccccc1)N1N=C(c2ccc([N+](=O)[O-])cc2)CC1(O)C(F)(F)F (stereo not drawn)	nt	-1.77
CC(C)CCOc1ccc(C2(C)NC(=O)N(CN3CCOCC3)C2=O)cc1 (stereo not drawn)	-0.9	0.265
O=C1COc2ccc(C(=O)CSc3nnc(-c4ccc(O)cc4)c(-c4ccc(O)cc4)n3)cc2N1	1.15	nt
CCOc1ccc(S(=O)(=O)N/N=C(\C)c2cccnc2)cc1	0	nt
c1ccc2c(CCc3ccncc3)c[nH]c2c1	nt	-1.12
CN(NS(=O)(=O)c1ccccc1)c1c(C#N)c(C(F)(F)F)nn1C	nt	0
CCCc1c(C(=O)NC2CCN(Cc3ccccc3)CC2)cnn1-c1ccccc1	-0.6	-1.04
CS(=O)(=O)N(CCC#N)Cc1ccco1	-1.25	0.27
CCC1CCCCN1C(=O)c1sc2ncnc(N(CC)CC)c2c1C (stereo not drawn)	nt	-0.505
CCn1c(SCC(=O)N2CCCC2)nc2ccccc21	-1	nt
O=C1CC(c2ccccc2)Cc2nc3ncnn3cc21 (stereo not drawn)	-0.55	nt
CC(C)(C)C1CCc2[nH]c3ccccc3c2C1 (stereo not drawn)	-0.4	-0.46
S=C(NCCCN1CCOCC1)N1CC2CCC(CC2)C1	-0.6	-0.225
Cc1cc(C(=O)CN2C(=O)NC(C)(c3ccccc3)C2=O)c(C)n1C (stereo not drawn)	0.2	nt
CCOC(=O)Nc1ccc2c(COC(=O)[C@H](C)NC(=O)c3ccco3)cc(=O)oc2c1	1.05	nt

Compounds shown so far with fluorine (14):
SMILES	AID504770	CapD inh
CC(=O)Nc1ccc(N2C(=O)CC(NCc3ccc(F)cc3)C2=O)cc1 (stereo not drawn)	nt	0.29
CC(=O)N/N=C/c1ccc(-c2ccc(F)c(Cl)c2)o1	-1.2	1.56
COC(=O)c1sccc1NC(=O)Nc1cc(C)oc1C(F)(F)F	1.4	-0.455
COC(=O)c1sccc1OCc1ncc(C(F)(F)F)cc1Cl	0.3	-0.48
CC(C)(C)c1ccc(C(=O)N2CCC(N(C3CC3)S(=O)(=O)c3cccc(C(F)(F)F)c3)CC2)cc1	nt	-0.55
O=C(CNc1cc(C(F)(F)F)ccc1N1CCOCC1)N1CCc2ccccc2C1	1.45	-0.68
CN(Cc1ccccc1)C(=O)c1cc2nc(-c3ccco3)cc(C(F)(F)F)n2n1	0.3	nt
CCC(=O)N1CC(=O)Nc2ccc(F)cc2C1c1ccccc1 (stereo not drawn)	nt	-0.685
N/C(=N\c1nc(=O)c2ccccc2s1)NC(=O)Nc1ccc(F)cc1	0.75	-0.025
FC(F)(F)c1cnc(CN2CCSCC2)c(Cl)c1	0.1	0.695
CCOC(=O)C1=CN(Cc2ccc(F)cc2)C=C(C(=O)OCC)C1c1cc(Br)ccc1OC	nt	6.53
COc1ccc(CNS(=O)(=O)c2ccc3c(c2)CN(C(=O)C(F)(F)F)CC3)c(OC)c1	nt	-0.62
O=C(COc1ccccc1)N1N=C(c2ccc([N+](=O)[O-])cc2)CC1(O)C(F)(F)F (stereo not drawn)	nt	-1.77
CN(NS(=O)(=O)c1ccccc1)c1c(C#N)c(C(F)(F)F)nn1C	nt	0

Other compounds follow.
SMILES	AID504770	CapD inh
O=C(CN1CCCCC1)NC1CC2CCC1C2 (stereo not drawn)	1.3	-0.01
Cc1sc2nc3ccc(N4CCCCC4)nn3c(=O)c2c1C	-0.1	nt
CC(/C=N/NC(=O)c1nnn(-c2nonc2N)c1CN1CCCCCC1)c1ccccc1 (stereo not drawn)	nt	-0.015
Cc1cc(C)cc(N2C(=O)CSC23C(=O)Nc2ccccc23)c1 (stereo not drawn)	nt	-0.075
CC1Cc2cc(C(=O)Nc3ccc(C(F)(F)F)cc3)ccc2N1S(C)(=O)=O (stereo not drawn)	0.35	nt
O=C(/C=N/O)NCC1CCNCC1	-0.7	-0.555
CCOC(=O)c1ccc(N2CC3CCCCN3C2c2ccc(Cl)cc2)cc1 (stereo not drawn)	2.5	0.22

This is a subset. The share of hits here may be higher or lower than overall.
